# ALR H2O2 inh = inhibitors of human sulfhydryl oxidase ALR. P55789. purified ALR, DTT oxidation, H2O2 HRP-luminol luminescence. inhibition, % (no concentration beside the values). 290,000 tested, 3.8% active. AID 485317;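 active = mean and each replicate at 75% or more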;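 also: stock transfer was 7.5 nL into about 7.5 µL; 0% = neutral wells and 100% = wells with inactivated enzyme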
# Target sequence (P55789 whole entry, looked up): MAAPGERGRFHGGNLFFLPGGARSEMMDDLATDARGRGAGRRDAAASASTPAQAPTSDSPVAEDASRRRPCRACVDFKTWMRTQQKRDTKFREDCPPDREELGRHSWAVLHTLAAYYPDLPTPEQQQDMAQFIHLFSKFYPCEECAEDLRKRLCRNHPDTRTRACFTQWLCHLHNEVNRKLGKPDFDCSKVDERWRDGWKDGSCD
# E coli growth = blocks Escherichia coli growth | OD600, 23 h; active compounds read low | OD600 absorbance (no concentration beside the values) | 330,000 tested, 0.21% active | AID 1053175;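 active = OD600 absorbance below the run mean of sample wells minus 3.6 SD, in any replicate, cut at about 0.56 in these data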;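 also: stock transfer was 300 nL into about 60 µL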
# HNF4A DNA FP = change in binding of human HNF4 alpha to DNA; 360,000 tested, 0.3% active; HNF4a-FITC DNA binding, fluorescence polarization, 1 h; AID 1224865; activity change, % at 10 µM; P41235; in the data active = activity change above about 30%, passing the limit was not always enough;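 also: controls were the assay level and a saturating level of protein; the project sought stronger binding though the title names inhibitors; some compounds called inactive have numbers as strong as hits; positive values seem to mean higher polarization but the record does not say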
# rRNA inh HTS = inhibitors of bacterial rRNA selective over humanized ribosomes; E. coli WT GFP vs humanized-ribosome RFP mutants, fluorescence, 24 h; active compounds read low; DMSO median 0, no signal -100; GFP signal change (wild-type ribosome), % (no concentration beside the values); 350,000 tested, 1.6% active; AID 720706;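 active = significant combined selectivity score with lowered wild-type GFP, culture density cut under 30%, mutant RFP and density less affected; inactive = any of these conditions unmet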; also: one replicate is shown; some compounds called inactive have numbers as strong as hits
# FGF22 binding = binders of recombinant human FGF22 by thermal shift; Q9HCT0; SYPRO orange fluorescence; percent of sucrose octasulfate shift, DMSO zero; AID 651658; calls only at 9.99 µM; 340,000 tested, 1.5% active;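 active = melting point raised past a set limit in the mean and every replicate; three in four hits are not shown here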
# UCH37 inh = human UCH37 deubiquitinating enzyme inhibition. Q9Y5K5. 330,000 tested, 0.33% active. inhibition, % (concentration not given with the values). purified proteasome/UCH37, Ub-AMC cleavage fluorescence;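 active = mean of two replicates above 20%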;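 also: 0% = compound-free wells with enzyme and 100% = wells lacking proteasome; stock transfer was 100 nL into about 20 µL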
# Target sequence (Q9Y5K5 whole entry, looked up): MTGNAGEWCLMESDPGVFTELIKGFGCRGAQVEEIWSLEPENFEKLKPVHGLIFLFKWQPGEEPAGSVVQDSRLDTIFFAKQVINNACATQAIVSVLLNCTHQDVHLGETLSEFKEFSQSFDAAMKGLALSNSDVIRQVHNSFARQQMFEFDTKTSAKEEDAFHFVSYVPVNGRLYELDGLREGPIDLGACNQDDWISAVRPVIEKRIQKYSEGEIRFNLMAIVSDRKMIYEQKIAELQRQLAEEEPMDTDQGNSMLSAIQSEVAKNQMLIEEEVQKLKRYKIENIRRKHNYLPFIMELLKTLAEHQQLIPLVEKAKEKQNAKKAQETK
#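 Test system – human UCH37 enzyme supplied as purified proteasome complex · Incubation – 30 min preincubation with enzyme, 25 min cleavage at room temperature · Detection – AMC fluorescence from Ub-AMC cleavage, excitation 355 nm, emission 460 nm · Benchmarks – no-proteasome wells (full inhibition) and compound-free wells (no inhibition)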
# Beta2AR agonist = human beta-2 adrenergic receptor agonism by FAP; 340,000 tested, 0.43% active; Am2.2-beta2AR cells, FAP receptor internalization, flow cytometry; reference of the scale not given here; P07550; response, % (concentration not given with the values);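 active = response above a set limit, near 3 SD of response in nonfluorescent compounds, cut at about 42% in these data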;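 also: stock transfer was 100 nL into about 11 µL; a reference agonist was the positive control; negative values mostly stem from fluorescent compounds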
# Target sequence (P07550 whole entry, looked up): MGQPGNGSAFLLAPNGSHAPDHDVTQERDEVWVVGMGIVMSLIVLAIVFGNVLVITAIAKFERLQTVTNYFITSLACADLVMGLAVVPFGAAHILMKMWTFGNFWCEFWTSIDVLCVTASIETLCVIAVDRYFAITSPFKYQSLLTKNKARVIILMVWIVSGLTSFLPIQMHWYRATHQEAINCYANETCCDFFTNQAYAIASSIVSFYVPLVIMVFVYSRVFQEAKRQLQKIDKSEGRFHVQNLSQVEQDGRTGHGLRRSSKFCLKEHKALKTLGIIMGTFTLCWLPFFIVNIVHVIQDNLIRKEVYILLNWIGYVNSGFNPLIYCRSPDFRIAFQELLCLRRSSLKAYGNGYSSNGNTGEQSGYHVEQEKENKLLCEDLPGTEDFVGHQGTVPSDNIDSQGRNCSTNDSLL
# rRNA inh HTS OD600 = recorded beside rRNA inh HTS, whose call it bears; OD600 change, %; measured here: OD600 growth;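 optical density of the mix in the first replicate; 0 = DMSO median and -100 = no signal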
# rRNA inh HTS RFP = further read-out of rRNA inh HTS, marked with its call; RFP signal change, %; measured here: RFP humanized mutant strains;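 first replicate; 0 = DMSO median and -100 = no signal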
# Active calls of the source: *; i = inactive; x = not tested or not shown. These rows are one share of the data (hit frequency here may not be typical).
SMILES,ALR H2O2 inh,E coli growth,HNF4A DNA FP,rRNA inh HTS,rRNA inh HTS OD600,rRNA inh HTS RFP,FGF22 binding,UCH37 inh,Beta2AR agonist
COc1ccc(Cl)cc1Nc1cc(C)nc2ccccc12,18,0.64,1.7,x,x,x,i,5.8,-19
COc1ccc(C(=O)CSc2nnc(-c3ccco3)n2C)cc1,25,0.65,2.4,8,5,-0.6,i,6.5,-21
CN1CCN(C(=O)c2ccc3c(c2)N(Cc2ccc(Cl)cc2)C(=O)c2ccccc2S3=O)CC1 (stereo unspecified),-2,0.73,1.9,1,5,-1.4,i,6.4,2
COc1ccc(/C=C/CN2CCC(Oc3ccc(C(=O)N4CCCCC4)cc3)CC2)cc1,23,0.67,3.1,-3,-2,2.0,i,2.1,-9
COc1ccc(NC(=S)N2CCCC(c3nc4ccc(C)cc4[nH]3)C2)c(OC)c1 (stereo unspecified),x,0.7,0.0,-4,-16,-3.2,x,2.0,1
N=c1n(CCN2CCCC2)c2ccccc2n1CC(O)c1ccco1 (stereo unspecified),9,0.72,-2.6,x,x,x,x,-0.6,14
CCCn1c2c(c(O)c(C(=O)Nc3ccccc3)c1=O)CCCC2,-4,0.74,1.7,x,x,x,x,-2.2,-1
C=CCN=C1CC(C)(C)CC(=O)/C1=C(\O)CCCN1C(=O)c2ccccc2C1=O,-11,0.67,-0.1,-9,1,-4.4,i,5.1,-9
COc1ccc(-c2cc3c(=O)n(CC(=O)N4CCN(C)CC4)ncn3n2)cc1,-5,0.69,2.1,2,4,-1.1,i,-0.7,4
CCn1cc(C(c2ccccc2)C(C(C)=O)[N+](=O)[O-])c2ccccc21 (stereo unspecified),-3,0.66,-3.0,-18,-5,16,i,0.4,-1

# Profiles, looked up by structure. Order of screens: ALR H2O2 inh	E coli growth	HNF4A DNA FP	rRNA inh HTS	rRNA inh HTS OD600	rRNA inh HTS RFP	FGF22 binding	UCH37 inh	Beta2AR agonist
# `C=CCN=C1CC(C)(C)CC(=O)/C1=C(\O)CCCN1C(=O)c2ccccc2C1=O` in the list: -11	0.67	-0.1	-9	1	-4.4	i	5.1	-9
# `COc1ccc(/C=C/CN2CCC(Oc3ccc(C(=O)N4CCCCC4)cc3)CC2)cc1` in the list: 23	0.67	3.1	-3	-2	2.0	i	2.1	-9

# Other results.
SMILES,ALR H2O2 inh,E coli growth,HNF4A DNA FP,rRNA inh HTS,rRNA inh HTS OD600,rRNA inh HTS RFP,FGF22 binding,UCH37 inh,Beta2AR agonist
COc1cc(-c2nc3ccccn3c2NCc2ccccc2)ccc1SC1CCCCC1,-1,0.73,-3.6,x,x,x,x,-394,24
COC(=O)c1cc(S(=O)(=O)N2CCN(c3ccc(C(C)=O)cc3)CC2)c[nH]1,0,0.65,1.6,0,15,0.2,i,-0.4,2
Cc1ccccc1C(=O)NCCc1nnc(SCC(=O)Nc2nc(-c3ccccc3)cs2)n1C,28,0.69,4.9,x,x,x,x,4.5,0
CCN(Cc1cccs1)C(=O)c1cccc(S(=O)(=O)N2CCN(C)CC2)c1,x,0.69,1.4,10,12,-0.1,i,2.2,7
Cc1ccc(C)c(-n2c(=O)c(C#N)cc3c(=O)n4ccccc4nc32)c1,14,0.67,3.0,22,26,3.4,i,i,11
CCCCn1c(N)c(N(CCC(C)C)C(=O)CSc2nncn2-c2ccccc2)c(=O)[nH]c1=O,x,0.66,-8.0,x,x,x,i,4.5,-8
Cc1onc(-c2c(Cl)cccc2Cl)c1C(=O)Nc1ccc(Cl)cn1,-4,0.68,0.8,-20*,-6.7*,-2.6*,i,2.6,0
CSc1ccc(/C=C/C(=O)c2ccc(NC(C)=O)cc2)cc1,6,x,-1.3,x,x,x,x,3.0,1
CC1(OC(=O)C2CCCC2)C(=O)C=C2C=C(c3ccsc3)N(C(CO)CO)C=C2C1=O (stereo unspecified),x,0.67,-3.0,11,16,25,i,3.4,-11
C[C@H](CO)N1C[C@H](C)[C@@H](CN(C)S(=O)(=O)c2ccc(-c3ccccc3)cc2)OCc2cn(nn2)CCCC1=O,x,x,3.2,-4,-3,2.6,i,x,x
COc1cccc(CNc2ccc([N+](=O)[O-])c(NCC(=O)O)n2)c1,-7,0.65,-4.2,14,4,0.5,i,9.5,8
CC(NC(=O)C1=CC=CN2CCS(=O)(=O)N=C12)c1ccc(Cl)c(Cl)c1 (stereo unspecified),-1,0.68,3.5,-1,-25,5.7,i,-55,-12
O=C(COc1ccccc1Cl)Nc1ccc(NC(=O)c2ccco2)cc1,17,0.56,2.4,-3,7,1.7,i,-65,-12
FC(F)(F)c1cccc(NC(=S)Nc2ccc(Cl)cc2Cl)c1,-5,0.65,-0.9,x,x,x,x,1.5,16
O=C(CNC(=O)c1ccc(Cl)cc1)OCC(=O)N1CCCC1,-4,0.67,-0.6,8,5,2.3,i,1.0,-7
CS(=O)(=O)Nc1cccc(-c2ccc3nncn3c2)c1,x,x,-3.1,8,13,0.1,i,x,x
CC(C)C(C)NC(=O)CN1C(=O)NC(C)(c2ccc3ccccc3c2)C1=O (stereo unspecified),2,0.67,0.2,-2,3,0.6,i,1.0,-9
Cc1cccc(C2NC(=O)c3ccccc3O2)c1 (stereo unspecified),2,0.65,-1.0,0,-1,0.1,i,3.8,-2
Cc1cc(C)n2c(SCC(=O)Nc3ccc(F)cc3F)nnc2n1,2,0.73,-5.3,5,1,0.9,i,-4.9,-7
Cc1noc(C)c1S(=O)(=O)N1CCCC(C(=O)NCc2ccccn2)C1 (stereo unspecified),-2,0.64,5.2,x,x,x,x,4.9,8

# Molecules above that contain fluorine:
SMILES,ALR H2O2 inh,E coli growth,HNF4A DNA FP,rRNA inh HTS,rRNA inh HTS OD600,rRNA inh HTS RFP,FGF22 binding,UCH37 inh,Beta2AR agonist
FC(F)(F)c1cccc(NC(=S)Nc2ccc(Cl)cc2Cl)c1,-5,0.65,-0.9,x,x,x,x,1.5,16
Cc1cc(C)n2c(SCC(=O)Nc3ccc(F)cc3F)nnc2n1,2,0.73,-5.3,5,1,0.9,i,-4.9,-7

# Going on with the list:
SMILES,ALR H2O2 inh,E coli growth,HNF4A DNA FP,rRNA inh HTS,rRNA inh HTS OD600,rRNA inh HTS RFP,FGF22 binding,UCH37 inh,Beta2AR agonist
Cn1c2ccccc2c2nnc(SCC(=O)NC3CC3)nc21,-5,0.65,0.5,-5,0,-1.3,i,10,-23
COc1ccc(C(=O)Nc2nnc(-c3ccco3)s2)cc1,4,0.65,7.8,x,x,x,x,-8.3,-13
CN(CCc1ccccc1)C(=O)c1cccc(NC(=O)Cc2cccc(NC(=O)C3CCN(C(=O)C4CCCC4)CC3)c2)c1,x,0.7,-1.8,-17,-12,2.8,i,3.0,-2
O=C1OC[C@@H]2CCCN2C(=O)[C@H](CC(=O)N(CCO)Cc2ccccc2)C/C=C\CC[C@H]1Cc1ccc(F)cc1,-14,x,2.2,-15,-19,2.9,i,-1.4,-3
CCOc1ccc(N=C2SC(C(=O)Nc3ccccc3C#N)C(N)=C2C(=O)Nc2ccc(Cl)cc2)cc1 (stereo unspecified),-17,0.7,-0.4,3,5,2.0,i,0.8,6
C=CCC[C@@H](Cc1ccc(F)cc1)C(=O)OCCNC(=O)[C@H](CC=C)CC(=O)NCCO,0,0.7,-3.9,8,-2,0.2,i,2.1,7
Cc1ccn(CCC(=O)NC2CCCc3c2cnn3-c2cccc(C)c2C)n1 (stereo unspecified),-3,0.68,-3.0,2,-3,0.5,i,1.1,3
COc1ccccc1OCc1ccc(C(=O)N2CCOCC2)o1,-6,x,1.3,-3,0,-7.1,i,-0.4,2
CCCCOc1ccc(N(CC(=O)NCc2ccccc2)C(=O)c2csnn2)cc1,-3,0.68,0.2,-2,5,-0.9,i,5.7,-17
O=[N+]([O-])c1ccccc1S(=O)(=O)Nc1ccc(S(=O)(=O)Nc2nccs2)cc1,x,0.66,-2.6,13,13,-0.6,i,3.0,3
CCOc1c(Cl)cc(CNCC(C)C)cc1Cl,-12,0.64,-1.8,x,x,x,x,-0.6,3
COc1ncnc2c1cnn2-c1ccccc1,-10,0.72,-2.9,x,x,x,x,1.5,6
COc1cc(NC(=O)[C@@H](NC(=O)c2ccco2)C(C)C)c(OC)cc1NC(=O)c1ccccc1,-28,0.71,3.7,7,4,-0.6,i,-13,0
Cc1cc(C)cc(NCc2ccncc2)c1,30,0.65,-2.2,2,0,-1.8,i,3.5,-7
COc1ccc(NC(=O)CN(C)C(=O)c2ccc(=O)[nH]c2)cc1,-2,0.7,2.0,6,13,-1.5,i,-1.3,2
O=C(NNc1nc2ccccc2s1)Nc1ccc(F)cc1,-6,x,0.9,-24,10,13,i,x,0
COc1ccc2c(c1)OC13CCCCC1C2C(C(=O)c1ccccc1)C(=O)N3 (stereo unspecified),x,0.72,-0.4,6,13,-2.3,i,5.7,5
COc1ccc(/C=C2\SC(=O)N(CCCC(=O)Nc3ccc(C(=O)O)cc3)C2=O)cc1,x,x,-0.8,-6,-16,-0.4,i,x,x
CCOc1ccc(-n2nc3ccc(N)cc3n2)cc1,-44,0.7,3.8,-3,-6,3.1,i,i,0
Cc1cc(C)c(NC(=O)COC(=O)C2=COCCO2)c(C)c1,x,x,-1.8,15,27,1.4,i,x,x
Cc1cc(=O)n2nc(N3CCC(C(=O)NCCc4ccccc4)CC3)sc2n1,x,0.76,-0.1,x,x,x,x,-0.5,1
CC(C)Oc1ccc(-c2nc(NCC3CCCO3)c3ccccc3n2)cc1 (stereo unspecified),5,0.64,4.4,-2,-24,-0.1,i,-5.7,-10
Cc1ccc(C(=O)N2CCc3cc4c(cc3C2C)OCCCO4)cc1 (stereo unspecified),0,0.67,5.0,4,-13,4.0,i,-55,-1
COc1cc(C)cc2oc(=O)c(CC(=O)N3CCN(C(=O)C4COc5ccccc5O4)CC3)c(C)c12 (stereo unspecified),48,0.67,0.7,-1,-2,-1.0,i,-310,9
COc1ccc(-c2nc3c(Cl)cc(C(F)(F)F)cn3c2Cc2ccc(C)cc2)cc1OC,x,x,8.4,1,9,16,i,x,x
CCOC(=O)c1sc(C)c2c1NC(C)(c1ccccc1)NC2=O (stereo unspecified),-2,0.72,-4.4,x,x,x,x,-75,0
O=C1CCCCCN1C(=O)c1cccc(C(=O)N2CCCCCC2=O)c1,-14,0.73,0.5,x,x,x,x,-6.7,4
O=C(CSc1ncnc2[nH]ncc12)Nc1nc(-c2ccc(F)c(F)c2)cs1,-7,0.64,-0.2,-1,-5,4.5,i,-2.1,13
CCCCCCN1CCN(C2CN(Cc3cn(Cc4ccccc4)nn3)S(=O)(=O)C2)CC1 (stereo unspecified),x,x,4.3,9,8,-3.4,i,x,x
O=C(OCn1nnc2ccccc2c1=O)c1cccnc1,-8,0.66,0.7,x,x,x,x,1.2,2
O=C(NCc1ccccc1)c1cc(C2CCCCN2C(=O)c2ccc(Cl)cc2)on1 (stereo unspecified),x,x,-0.2,-14,-9,4.3,i,x,x
OC12CCCCC1C(c1ccc3c(c1)OCO3)N(Cc1cccc(F)c1)CC2 (stereo unspecified),x,0.74,0.3,x,x,x,x,-0.2,-4
CC(C)C1CC(CCN)(c2ccccc2)CCO1 (stereo unspecified),1,0.7,5.5,14,3,-1.7,i,1.2,-3
NNc1nc2cc3c(cc2s1)OCCO3,99*,0.69,2.2,-5,4,-3.4,i,2.6,6
CCN(CC)CCCN(Cc1cc2cc3c(cc2[nH]c1=O)OCO3)C(=S)NCCOC,-3,0.69,4.5,1,5,-1.1,i,-54,11
Cc1nnc2c3ccccc3c(-c3cccs3)nn12,x,0.69,2.6,-20,-14,-1.9,i,3.3,9
CCOC(=O)c1oc2c(CN3CCN(C)CC3)c(O)ccc2c(=O)c1-c1ccccc1OC,-9,0.73,4.0,0,8,1.9,i,11,6
Cn1nc(C(=O)NNC(=O)CCc2ccccc2Cl)c2ccccc2c1=O,-4,0.68,-0.5,7,5,-1.5,i,0.3,0

# Source: PubChem BioAssay
